Mtb growth – Mycobacterium tuberculosis H37Rv growth inhibition, putative kinase inhibitor library, confirmatory dose response (AID 2842) | M. tuberculosis H37Rv growth inhibition; higher % means a stronger effect; some inactives read as strong as hits | inhibition, % at 10 µg/mL, or IC90 in µg/mL where a hit was titrated | 24,000 tested, 5.2% active;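 active = confirmed in a dose series; inconclusive = mostly over 85% at the one dose but not retested; inactive = below 85% or not confirmed; about a fifth of its hits are not listed in these tables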;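 also: bacteria incubated one week before Alamar blue readout; 0% = bacteria only wells and 100% = bacteria with high antibiotic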
* marks the source's active call; other numbers are inactive results; ? = inconclusive.

| mol | Mtb growth |
| --- | --- |
| N#C/C(=C(\O)c1ccc(Cl)cc1)c1nc2ccccc2c(=O)[nH]1 | -3% |
| CCCCC(=O)Nc1c(C(=O)Nc2ccc(F)c(F)c2)oc2ccccc12 | -6% |
| Cc1nnc(SCC(=O)NCCc2ccccc2)n(N)c1=O | -7% |
| COc1cccc(NC(=O)CSc2nccn(-c3ccc(F)cc3)c2=O)c1 | -7% |
| Cc1cc(C)n(-c2ncnc3scc(-c4ccc(Cl)cc4)c23)n1 | -2% |
| N#Cc1c(NC(=O)c2ccc(Cl)s2)sc2c1CCN(Cc1ccccc1)C2 | 4% |
| CCOC(=O)c1nn(-c2ccc(C)cc2)c(=O)c2c(NC(=O)Cc3ccc([N+](=O)[O-])cc3)scc12 | 0% |
| Cc1cc(C)c2sc(NNC(=O)C3COc4ccccc4O3)nc2c1 (stereo unspecified) | ? |
| CCOC(=O)c1ccsc1NC(=O)c1cc2c(ccc3ccccc32)oc1=O | 4% |
| CCCc1cc(=O)[nH]c2nnc(SCC(=O)NCC(=O)OCC)n12 | 5% |
| Cc1ccc(-n2c(SCC(=O)Nc3ccccc3F)nc3c([nH]c4ccccc43)c2=O)cc1 | 63% |
| O=C(Nc1cccc(-c2ccc3nnc(-c4ccncc4)n3n2)c1)c1cccc(F)c1 | -4% |
| Cc1cnnn1-c1ccc(C(=O)Nc2ccc(Cl)c(Cl)c2)cc1 | 4% |
| CC1CN(c2cc(=O)n(-c3ccc(Cl)cc3)c(=O)[nH]2)CC(C)O1 (stereo unspecified) | -2% |
| O=C(NCc1cccnc1)C(=O)Nc1cc2c3c(c1)CCN3C(=O)CC2 | -12% |
| COC(=O)c1ccc(Nc2ncnc3nc[nH]c23)cc1 | 4% |
| CCCc1nc(SCc2ccc(Cl)cc2Cl)n[nH]1 | 43% |
| Nc1nc(SCC(=O)NCc2ccc(F)cc2)[nH]c(=O)c1NC(=O)c1cccs1 | -1% |
| COc1ccc(-c2nnc3c4cc5c(cc4n(Cc4ccc(C)cc4)cc2-3)OCO5)cc1 | 10% |
| Cn1c(NC(=O)CCC2CCCC2)cc(=O)n(C)c1=O | 9% |
| O=C(Oc1ccc(/C=N/NC(=O)C2COc3ccccc3O2)cc1)c1cccnc1 (stereo unspecified) | 6% |
| Cc1cc(C)nc(Sc2ccc(S(=O)(=O)C(F)(F)F)cc2[N+](=O)[O-])n1 | -8% |
| Cc1ccc(C2/C(=C(/O)c3c(C)nc4ccccn34)C(=O)C(=O)N2CCCN(C)C)cc1 (stereo unspecified) | -5% |
| Cc1nnc(SCC(=O)NCc2ccc(F)cc2)n(N)c1=O | -9% |
| O=C1C(Cl)=C(Nc2ccccc2O)C(=O)N1c1ccccc1 | 3.3µg/mL* |
| COc1ccc2c(c1)c(=O)c(C(=O)c1ccc(C)c(C)c1)cn2CC(=O)Nc1ccc(F)cc1 | -3% |
| Cc1ccc(S(=O)(=O)c2nnn3c2nc(N2CCN(c4ccc([N+](=O)[O-])cc4)CC2)c2ccccc23)cc1C | 9% |
| COC(=O)Cc1c(-c2ccccc2)c2cc(Br)ccc2[nH]c1=O | 8% |
| Cc1sc2ncn(Cc3cccc(C(=O)O)c3)c(=O)c2c1C | -24% |
| CC(=O)c1cccc(Nc2nc(N3CCCC3)nc(N3CCCC3)n2)c1 | 1% |
| O=C(Nc1nc2c(s1)CCCC2)c1ccc(S(=O)(=O)N2CCCCC2)cc1 | -4% |
| CCOC(=O)c1nn(-c2ccc(F)cc2)c(=O)c2c(NC(=O)c3cccc(OC)c3)scc12 | 2% |
| Cc1ccc(S(=O)(=O)CCCC(=O)Nc2nnc(-c3ccco3)o2)cc1 | 3% |
| O=C(Nc1c(C(=O)Nc2ccc(F)c(F)c2)oc2ccccc12)c1ccccc1 | -5% |
| Cc1cc(F)ccc1S(=O)(=O)Nc1cc2c3c(c1)C(C)C(=O)N3CCC2 (stereo unspecified) | -2% |
| CCOC(=O)c1[nH]c2ccccc2c1NC(=S)Nc1ccccc1 | 6% |
| Cc1ccccc1NC(=O)CN1N=NC2C(=O)N(c3ccc(C(C)C)cc3)C(=O)C21 (stereo unspecified) | -5% |
| NC(=O)c1c(NC(=O)c2ccc3c(c2)CCCC3)sc2c1CCN(Cc1ccccc1)C2 | -3% |
| Cc1ccc(NC(=O)c2cnc(SCC(=O)c3ccccc3)n(C)c2=O)cc1 | -1% |
| COc1ccccc1NC(=O)CSC1=NS(=O)(=O)c2ccccc2N1 | 18% |
| O=C(CSc1ccc2nnc(-c3ccccn3)n2n1)Nc1cccc(F)c1 | -1% |
| Cc1ccc2cc(CCNC(=O)c3cc(Cl)ccc3Cl)c(=O)[nH]c2c1 | -3% |
| Cc1cc(Cl)ccc1Nc1nc(Nc2ccc(F)cc2)nc2nccnc12 | -7% |
| Cc1ccc(NC(=O)CSc2nc(N)c(NC(=O)c3ccc(C(F)(F)F)cc3)c(=O)[nH]2)c(C)c1 | -7% |
| CCN(CC)S(=O)(=O)c1ccc(C(=O)Nc2ccc3c(c2)C(=O)NC3=O)cc1 | 4% |
| COc1ccc(N2CCN(c3nc4c(c(=O)[nH]c(=O)n4C)n3CCSc3nc4ccccc4s3)CC2)cc1 | 2% |
| C=CCn1c(N2CCN(Cc3cc(C)ccc3C)CC2)nc2c1c(=O)[nH]c(=O)n2C | -16% |
| COc1ccc(NC(=O)c2oc3ccccc3c2NC(=O)CCc2ccccc2)cc1OC | -2% |
| COC(=O)c1ccc(C(=O)Nc2nnc(-c3ccncc3)o2)cc1 | -1% |
| O=C(Nc1nnc(-c2cc(Cl)ccc2Cl)o1)c1ccc(Br)s1 | 2.6µg/mL* |
| COc1ccc2nc(N(CCCn3ccnc3)C(=O)c3cccc(F)c3)sc2c1 | 84% |
| Cc1ccc2sc(NC(=O)CN3C(=O)c4ccccc4C3=O)nc2c1C | -4% |
| Cc1ccc(NC(=O)CSc2ccc3nnc(-c4ccc(F)cc4)n3n2)c(C)c1 | -15% |
| O=C(Nc1nnc(-c2ccc(Cl)cc2)o1)c1ccco1 | 1.1µg/mL* |
| CC1CCc2c(sc(NC(=O)c3ccc(Cc4ccccc4)cc3)c2C(N)=O)C1 (stereo unspecified) | -1% |
| CC(=O)Nc1ccc(NC(=O)CSc2nnc(-c3ccncc3)n2N)cc1 | -1% |

(cont.)
| mol | Mtb growth |
| --- | --- |
| Cc1ccc(Cl)c2sc(=NC(=O)c3cc4ccccc4oc3=O)n(C)c12 | -10% |
| O=C(c1ccccc1)c1ccccc1N=Cc1c(O)[nH]c(=O)[nH]c1=O | 5% |
| CN(c1ccccc1)S(=O)(=O)c1ccc(C(=O)Nc2nc(-c3ccc(Cl)cc3)cs2)cc1 | 13% |
| CCC(CC)C(=O)Nc1c(C(=O)Nc2ccc(F)c(F)c2)oc2ccccc12 | -1% |
| Cc1ccc(S(=O)(=O)NCc2ccc3[nH]c(C)cc3c2)cc1 | 65% |
| CCN1CCc2c(sc(NC(=O)c3ccc(OC)cc3)c2C(N)=O)C1 | 0% |
| CC(C)Cn1c2c(c(=O)[nH]c1=O)C(c1ccc(F)cc1)C1=C(COC1=O)N2 (stereo unspecified) | 2% |
| Cc1nnc(Sc2nc3c(c(=O)[nH]c(=O)n3C)n2Cc2ccc(Cl)cc2)s1 | -6% |

Of the compounds above, these contain a CF3 group:
| mol | Mtb growth |
| --- | --- |
| Cc1cc(C)nc(Sc2ccc(S(=O)(=O)C(F)(F)F)cc2[N+](=O)[O-])n1 | -8% |
| Cc1ccc(NC(=O)CSc2nc(N)c(NC(=O)c3ccc(C(F)(F)F)cc3)c(=O)[nH]2)c(C)c1 | -7% |

The list goes on.
SMILES	Mtb growth
Cc1ccc2sc(NC(=O)c3ccc4ncsc4c3)nc2c1C	6%
CCOC(=O)c1c(-c2ccc(OC)cc2)csc1NC(=O)c1cccnc1	2%
Nn1c(Nc2ccc(Cl)cc2)nncc1=O	-5%
O=C(NCc1cccc(Cl)c1)c1cnc2n(c1=O)CCS2	-9%
Cc1ccc(CNc2nc3c(c(=O)[nH]c(=O)n3C)n2CCCc2ccccc2)cc1	16%
Cc1ccc(C)c2[nH]c(=O)c(CCNC(=O)c3cc([N+](=O)[O-])ccc3Cl)cc12	-3%
CCOC(=O)c1nn(-c2ccccc2)c(=O)c2c(NC(=O)c3ccc(Cl)cc3Cl)scc12	-4%
O=C1NCCc2c(OCc3cccc(F)c3)cccc21	-9%
Cc1ccc(NC(=O)c2cnc3sccn3c2=O)cc1	5%
NC(=O)c1nc(-c2ccc(Cl)c(Cl)c2)nc2c1[nH]c(=O)n2-c1ccc(F)cc1	-16%
COC(=O)Cn1c(=O)c2c(nc3n(-c4cccc(C)c4)c(C)cn23)n(C)c1=O	-1%
COc1ccc(-c2nc(C(N)=O)c3[nH]c(=O)n(-c4ccccc4OC)c3n2)cc1	7%
CCn1c(N2CCN(Cc3c(F)cccc3Cl)CC2)nc2c1c(=O)[nH]c(=O)n2C	0%
Cc1nnc(SCC(=O)NCc2ccc3c(c2)OCO3)s1	-5%
COc1ccc(NS(=O)(=O)c2cc3c4c(c2)CCN4C(=O)CC3)cc1	-6%
O=C(Cn1cnc2c(cnn2-c2cccc(Cl)c2)c1=O)NCc1ccco1	-12%
Cc1ccc(-n2ncc3c(=O)[nH]c(SCC(=O)NCc4ccc5c(c4)OCO5)nc32)cc1	-7%
C=CCn1c(=NC(=O)c2cc(OC)c(OC)c(OC)c2)sc2cc(S(N)(=O)=O)ccc21	-8%
O=C(COc1ccccc1)Nc1c(C(=O)Nc2ccccc2)oc2ccccc12	4%
COc1ccc(OCC(=O)Nc2ncc(Cc3ccc(Br)cc3)s2)cc1	16%

Laid out differently: entries from further up
> COC(=O)Cn1c(=O)c2c(nc3n(-c4cccc(C)c4)c(C)cn23)n(C)c1=O
  Mtb growth: -1%
> COc1ccc(-c2nc(C(N)=O)c3[nH]c(=O)n(-c4ccccc4OC)c3n2)cc1
  Mtb growth: 7%
> CCn1c(N2CCN(Cc3c(F)cccc3Cl)CC2)nc2c1c(=O)[nH]c(=O)n2C
  Mtb growth: 0%
> Cc1nnc(SCC(=O)NCc2ccc3c(c2)OCO3)s1
  Mtb growth: -5%

Next part.
SMILES	Mtb growth
COCCn1c(=O)c2c(nc3n(-c4cc(C)ccc4C)c(C)cn23)n(C)c1=O	2%
O=C(CSc1ccc(-c2ccc(-n3ccnc3)cc2)nn1)N1CCCC1	-10%
O=C(CSc1nc2c([nH]c3ccccc32)c(=O)n1-c1cccc(Cl)c1)NCCc1ccccc1	65%
O=C(COc1coc(CN2CCc3ccccc3C2)cc1=O)N1CCc2ccccc21	-6%
COc1ccc(C(=O)Nc2c(N)nc(SCC(=O)N3CCN(c4ccccc4)CC3)[nH]c2=O)cc1OC	2%
C=CCn1c(=O)c2c(nc(N/N=C/c3ccccc3O)n2C)n(C)c1=O	70%
O=C(Nc1nc(-c2ccc(Br)cc2)cs1)c1ccc2ccccc2c1	-7%
Cc1ccc(C)c(-c2nnc(NC(=O)Cc3ccccc3)o2)c1	18µg/mL*
COc1cc(OC)cc(C(=O)Nc2nnc(-c3ccccc3C)s2)c1	6%
CCOc1ccccc1-n1c(=O)[nH]c2c(C(N)=O)nc(-c3ccccc3C)nc21	38%
COc1ccc(NC(=O)C(=O)Nc2cc3c4c(c2)CCC(=O)N4CCC3)cc1OC	15%
Cc1ccc(CSc2nc3c(c(=O)[nH]2)C(c2cccnc2)C2=C(CC(C)(C)CC2=O)N3)cc1 (stereo unspecified)	10%
CCOCCn1c(=O)c2c(nc3n(-c4cccc(C)c4)c(C)cn23)n(C)c1=O	-5%
Cc1cccc(OCC(=O)Nc2c(C(=O)Nc3ccccc3)oc3ccccc23)c1	1%
Cc1cc(NC(=O)C(C)Oc2ccccc2)nc2c1c(=O)oc1ccccc12 (stereo unspecified)	5%
Cc1ccc(NC(=O)CSc2nnc3cc(C)c4ccccc4n23)cc1	-13%
COc1ccc(-c2nc(SCC(=O)Nc3ccc(F)cc3F)c3c(=O)n(C)c(=O)n(C)c3n2)cc1	10%
Cn1c(=O)c2c(SCC(=O)NCc3ccc(F)cc3)nc(-c3ccco3)nc2n(C)c1=O	0%
O=C(Nc1c(C(=O)Nc2ccc([N+](=O)[O-])cc2)oc2ccccc12)c1cccc([N+](=O)[O-])c1	-12%
Cc1oc(-c2cccc(C(F)(F)F)c2)cc1-c1nn2c(-c3ccccc3)nnc2s1	1%
CCCOc1ccccc1/C=C1/Oc2ccc(C(=O)OC)cc2C1=O	-1%
Nc1c(-c2nc(-c3ccncc3)no2)nnn1-c1cccc(F)c1	11%
Nn1c(SCC(=O)Nc2ccc3c(c2)OCO3)nncc1=O	56%
CCN(CC)S(=O)(=O)c1ccc(C(=O)Nc2nnc(-c3ccccc3Cl)s2)cc1	5%
Cc1ccc(-c2oc3ccccc3c(=O)c2OCC#N)cc1	4%
Cc1c(NC(=O)CN2C(=O)C(=O)c3ccccc32)c(=O)n(-c2ccccc2)n1C	-5%
Cc1ccc(-n2ncc3c(SCC(=O)Nc4nnc(C)s4)ncnc32)c(C)c1	-10%
CCOC(=O)c1ccc(N2C(=O)CC(Sc3ncccc3C(=O)O)C2=O)cc1 (stereo unspecified)	-11%
O=C1C(=O)N(CCCn2ccnc2)C(c2ccccc2)/C1=C(\O)c1ccc2c(c1)OCCO2 (stereo unspecified)	23%
C=CCn1c(SCC(=O)OCC)nnc1-c1ccc([N+](=O)[O-])cc1	-4%
COc1cccc(C2CC(c3cccs3)=NN2C(=O)CSc2nc3c(cnn3-c3ccc(F)cc3)c(=O)[nH]2)c1OC (stereo unspecified)	84%
Cc1ccc(NC(=O)CSc2nc3c(c(=O)n2C)SC(C)C3)cc1Cl (stereo unspecified)	-11%

Part of the list above, field by field.
CCOC(=O)c1ccc(N2C(=O)CC(Sc3ncccc3C(=O)O)C2=O)cc1 (stereo unspecified)
- Mtb growth: -11%

O=C1C(=O)N(CCCn2ccnc2)C(c2ccccc2)/C1=C(\O)c1ccc2c(c1)OCCO2 (stereo unspecified)
- Mtb growth: 23%

Screening data: PubChem, Southern Research Institute

Only part of the results is shown; rates above refer to the full screens.
